Screening results deposited in PubChem BioAssay by National Center for Advancing Translational Sciences (NCATS).
VDR inh: vitamin D3 receptor (human) inhibition; AID 504847; P11473; Potency, µM, for inactives: max response, negative = inhibition, actives largely listed as inhibitors; actives 0.93% (n = 400,000); VDR-SRC2-3 peptide fluorescence polarization, 2 h; active means well fitted inhibition curve with a large enough effect; inconclusive means small, poorly fitted or top-dose-only effect, or another doubt; inactive means no such curve, though single readings can be large or run the other way; further: series mostly up to about 120 µM
Target sequence (P11473 whole entry, looked up): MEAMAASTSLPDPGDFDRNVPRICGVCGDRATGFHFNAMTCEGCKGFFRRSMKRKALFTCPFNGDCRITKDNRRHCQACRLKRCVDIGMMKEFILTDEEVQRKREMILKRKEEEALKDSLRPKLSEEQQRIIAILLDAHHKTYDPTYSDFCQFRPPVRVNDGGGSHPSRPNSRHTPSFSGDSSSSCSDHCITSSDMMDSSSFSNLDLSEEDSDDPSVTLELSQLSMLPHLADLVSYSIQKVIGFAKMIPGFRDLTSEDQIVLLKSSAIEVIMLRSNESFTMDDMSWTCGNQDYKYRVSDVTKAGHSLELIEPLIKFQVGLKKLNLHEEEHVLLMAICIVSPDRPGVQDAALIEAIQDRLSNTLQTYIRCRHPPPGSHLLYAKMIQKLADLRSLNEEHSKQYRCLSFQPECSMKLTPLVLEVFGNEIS
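Signal is fluorescence polarization, reporting how far test compounds block the interaction of VDR with the SRC2-3 coregulator peptide after a 2 h room-temperature incubation.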
Starred values were filed as active, the others as inactive; ? = inconclusive; & = joins results of further samples. On the % scale 0 is the no-effect control and ±100 the full control effect; potency means the concentration at half of the fitted maximal effect. Only part of the results is shown (hit frequency here may not be typical).

SMILES	VDR inh
CCc1ccc(C2CC(c3ccccc3)Nc3nc(N)nn32)cc1 (centres undefined)	-9%
COc1ccc(Cl)cc1C(=O)Nc1nc2ccccc2[nH]1	-13%
CN1CCN(/N=C/c2nc(-c3ccccc3)n3ccccc23)CC1	-8%
COc1ccc(/C=C(\C#N)C(=O)C(C)(C)n2cncn2)cc1	5%
Nc1ncnc2nc(N3CCN(C(=O)c4ccccc4)CC3)[nH]c12	-1%
CCc1ccc(Sc2cc(C(=O)NCc3cccc(OC)c3)c3ccccc3n2)cc1	1%
COCc1cc(C)nc2sc(C(=O)OC)c(N)c12	-4%
CCCCNC(=O)c1cc2cc(CC)ccc2[nH]1	-1%
COc1cccc(COC(=O)c2ccc(-c3nnn(Cc4ccccc4)n3)cc2)c1	-11%
CCOC(=O)N1C(=O)c2cc(OC)ccc2S1(=O)=O	22%
Cc1cccc(NC(=O)c2cnccn2)c1	-7%
C=CCN1C(=O)C2(NC(=O)c3ccccc3N2)c2ccccc21 (centres undefined)	-4%
O=C(C1CCCN(S(=O)(=O)c2cccc3nsnc23)C1)N1CCN(c2ccccn2)CC1 (centres undefined)	2%
COC(=O)C(C)(N)Cc1ccc(O)cc1 (centres undefined)	11%&-11%
COc1ccc(OCCNC(=O)Nc2cc(F)c(F)cc2Cl)cc1	-2%
Fc1ccc(NC(=S)NCc2cccs2)cc1	-6%
Cc1cc(C)cc(NC(=O)c2sc3nc(-c4ccccc4)cn3c2C)c1	-4%
CCOC(=O)c1[nH]nc(-c2cc(CC)c(O)cc2O)c1-c1cscn1	-7%
COc1ccc2[nH]c(=O)c(-c3nnn(-c4ccccc4)n3)cc2c1	3%
Cc1nn(C)c(C(=O)Sc2ccccc2)c1[N+](=O)[O-]	-28%
O=C(Nc1ccc(S(=O)(=O)N2CCCC2)cc1)C1CC(=O)N(c2ccccc2)C1 (centres undefined)	-5%
N#Cc1ccc(CN2CCN(C(=O)c3cc(C4CC4)nn3-c3ccccc3)CC2)cc1	-1%
Cc1c(/C=N/NC(=O)c2sc3ccccc3c2Cl)cnn1C	-1%
COC(=O)[C@H](Cc1ccccc1)NC(=O)N(C)Cc1ccccc1	3%
CCOC(=O)CC1C(C(=O)OCC)ON2OC(C(=O)OC)C(C(=O)OCC)C12 (centres undefined)	6%
O=C(c1ccc(Br)cc1)N1CCCC1	18%
CC(C)CC(=O)Nc1ccc(Cc2ccncc2)cc1	14%
COC(=O)CC(NC(=O)c1ccc(C)cc1)c1ccc2c(c1)OCO2 (centres undefined)	-10%
CCOC(=O)C(Cc1c[nH]c2ccccc12)NC(=O)CNC(C)=O (centres undefined)	28%
Cc1cccc(-n2ccnc2SCC(=O)O)c1C	-10%
O=C(COc1ccccc1)OCc1cc(-c2ccco2)on1	7%
CCNC(=O)CCSc1nnc(-c2ccc(O)cc2)o1	?
CC(C)c1ccc(S(=O)(=O)N2CCN(CCC(=O)Nc3ccc(N(C)C)cc3)CC2)cc1	-3%
CC12CCC=CC1=C(C=O)C1C2CCC2(C)C(O)CCC12 (centres undefined)	-12%
CCc1ccc(NC(=O)CNCc2ccc(OC)c(OC)c2)cc1	5%
CN(C)CCN1C(=O)C(O)=C(C(=O)c2cc3ccccc3o2)C1c1cccc(Br)c1 (centres undefined)	-14%
CCOc1cc(C2C(C#N)=C(N)Oc3n[nH]c(-c4ccncc4)c32)cc([N+](=O)[O-])c1O (centres undefined)	-2%
CCCC(=O)N(CCN1CCOCC1)c1nc2c(OC)ccc(OC)c2s1	-3%
CCCNC(=O)c1ccc(SC)cc1OC	-16%
CC[C@@H](C)[C@H](NC(=O)OC(C)(C)C)c1nnc(S(=O)(=O)Cc2cc(C)ccc2C)o1	11µM*
COc1ccc[nH]c1=O	18%
COc1cc(/C=N/N2CCN(c3ccccc3OC)CC2)ccc1OC(C)=O	-9%
Cc1ccccc1-c1ccc2ncnc(NC3CC3)c2c1	?
C=CCN(c1ccccc1OC)S(=O)(=O)c1cccc(C(=O)OCC(=O)c2c[nH]c3ccccc23)c1	10%
COc1cc2c(cc1OC)CN(C(=O)C(C)(C)C)CC2	-4%

A different layout for part of the listing above:
compound,VDR inh
O=C(COc1ccccc1)OCc1cc(-c2ccco2)on1,7%
CCNC(=O)CCSc1nnc(-c2ccc(O)cc2)o1,?
CC(C)c1ccc(S(=O)(=O)N2CCN(CCC(=O)Nc3ccc(N(C)C)cc3)CC2)cc1,-3%
CC12CCC=CC1=C(C=O)C1C2CCC2(C)C(O)CCC12 (centres undefined),-12%
CCc1ccc(NC(=O)CNCc2ccc(OC)c(OC)c2)cc1,5%
CN(C)CCN1C(=O)C(O)=C(C(=O)c2cc3ccccc3o2)C1c1cccc(Br)c1 (centres undefined),-14%
CCOc1cc(C2C(C#N)=C(N)Oc3n[nH]c(-c4ccncc4)c32)cc([N+](=O)[O-])c1O (centres undefined),-2%
CCCC(=O)N(CCN1CCOCC1)c1nc2c(OC)ccc(OC)c2s1,-3%
CCCNC(=O)c1ccc(SC)cc1OC,-16%
CC[C@@H](C)[C@H](NC(=O)OC(C)(C)C)c1nnc(S(=O)(=O)Cc2cc(C)ccc2C)o1,11µM*
COc1ccc[nH]c1=O,18%
COc1cc(/C=N/N2CCN(c3ccccc3OC)CC2)ccc1OC(C)=O,-9%
Cc1ccccc1-c1ccc2ncnc(NC3CC3)c2c1,?
C=CCN(c1ccccc1OC)S(=O)(=O)c1cccc(C(=O)OCC(=O)c2c[nH]c3ccccc23)c1,10%
COc1cc2c(cc1OC)CN(C(=O)C(C)(C)C)CC2,-4%

Next part.
SMILES	VDR inh
O=C(O)CCCCn1c(SCc2ccccc2Cl)nc2ccsc2c1=O	3%
Cc1ccc(NCc2nnc(SCC(=O)c3ccc4c(c3)OCCO4)o2)c(C)c1	3%
Cc1ccc(-c2noc(C3CCCN(C(=O)c4cccc(Cl)c4)C3)n2)o1 (centres undefined)	-2%
CC(=O)c1cccc(S(=O)(=O)N2CCN(c3nc(-c4cccs4)nc4ccccc34)CC2)c1	-2%
CC(C)Sc1ncnc2[nH]ncc12	5%
CCC(C)[C@H](NC(=O)NCCC1=CCCCC1)C(=O)OC (some centres undefined)	-3%
CCN1CCN(C(=O)c2ccc3c(c2)N(Cc2cccc(F)c2)C(=O)c2ccccc2S3)CC1	0%
CNC(=O)c1sc(-c2ccccc2)nc1C	22%
COC(=O)c1sccc1NC(=O)C1CCCCC1C(=O)O (centres undefined)	0%
NS(=O)(=O)c1ccc(NC(=O)c2ccc(S(=O)(=O)N3CCOCC3)o2)cc1	-3%
CCOC(=O)C1=C(CN2CCN(C(=O)c3ccco3)CC2)NC(=O)NC1c1ccc(OC(C)C)cc1 (centres undefined)	11%
O=[N+]([O-])c1ncccc1Oc1nc(-c2cccnc2)nc2ccccc12	-16%
Cc1ccccc1Cn1c(=O)n(Cc2ccco2)c(=O)c2oc3ccccc3c21	3%
COc1ccc(N2C(=O)NC(NC(=O)C(C)(C)C)(C(F)(F)F)C2=O)cc1 (centres undefined)	17%
CCN(CC)S(=O)(=O)c1ccc(F)cc1	-2%
O=C(NNC(=O)c1cc(-c2cccnc2)nc2ccccc12)Nc1ccc(Cl)cc1	-16%
OCCN(Cc1ccccc1)Cc1ccc(Cl)cc1Cl	5%
O=C(CN1CCOCC1)N1CCOCC1	4%
CC(Oc1ccc(Cl)cc1)c1ccnn1S(=O)(=O)c1ccccc1 (centres undefined)	1%
CSc1ccccc1C(=O)Nc1nc2ccccc2[nH]1	-13%
CCCCOc1c(Br)cc(/C=N/O)cc1OCC	-3%
CCC(=O)c1ccc(OCC(=O)O)c(OC)c1	9%
CCCOc1ccc(C(=O)NNC(=O)CCNC(=O)c2ccccc2Cl)cc1OC	-10%
CCOC(=O)C1CCN(Cc2ccc(O)c(OC)c2)CC1	10%
Cc1ccc(C(C(=O)NCC2CCCO2)N(C(=O)c2snc(C(N)=O)c2N)c2ccccc2F)o1 (centres undefined)	-6%
CCOC(=O)CSc1nc2ccccc2c(=O)n1CC1CCCO1 (centres undefined)	2%
Cc1c(NC(=O)c2cccc(NC(=O)COc3ccccc3)c2)c(=O)n(-c2ccccc2)n1C	6%
CC(C)CN1C(=O)NC(NC(=O)c2cccnc2)(C(F)(F)F)C1=O (centres undefined)	11%
Cc1ccc(-c2cc(C(=O)N/N=C/c3c[nH]c4ccccc34)n[nH]2)o1	-11%
C=CCn1c(SCc2c(C(=O)OC)sc(N)c2C(=O)OC)nnc1-c1ccc(Cl)cc1	8%
COc1ccc(C(=O)NCC(c2ccc(N(C)C)cc2)N2CCc3ccccc32)cc1OC (centres undefined)	5%
CCOC(=O)C1CCN(C(=O)CN2C(=O)c3ccccc3S2(=O)=O)CC1	-5%
Cc1cc(=O)oc2cc(OCC(=O)OCC(=O)Nc3ccc(C(C)C)cc3)ccc12	1%
O=C(c1cc2ccc([N+](=O)[O-])cc2oc1=O)N1CCOCC1	-1%
CCOC(=O)C1=CN(Cc2ccco2)S(=O)(=O)NC1c1ccc(Br)cc1F (centres undefined)	-2%
CN(C(=O)c1ccc(NC(=O)Cc2ccc(NC(=O)C3CCN(C(=O)c4ccccc4)CC3)cc2)cc1)C1CCCC1	2%
O=C(CN1C(=O)c2ccccc2C1=O)N1CCN=C1c1ccccc1	4%
CN1C(=O)C2(C(C#N)=C(N)N(c3cc(Cl)cc(Cl)c3)C3=C2C(=O)CC(C)(C)C3)c2ccccc21 (centres undefined)	-4%
CCS(=O)(=O)NCCc1csc(-c2cccnc2)n1	-22%
Cc1ccc(NC(=O)C2CCN(S(=O)(=O)c3cccc4nonc34)CC2)cc1C	14%
CCN(C(=O)Cn1c(=O)oc2ccccc21)c1c(N)n(Cc2ccccc2)c(=O)[nH]c1=O	5%
O=C(c1cc(COc2cccc(C(F)(F)F)c2)on1)N1C[C@@H]2CCC[C@H]1C2	-11%
O=C(NC(=S)Nc1ccc(F)cc1)C1CCCCC1	-7%
Cc1ccc(CCNC(=O)c2ccc(CSCc3ccc(C)cc3)o2)cc1	-6%
CC(/C=N/NC(=O)c1cc(C(C)C)[nH]n1)=C\c1ccccc1	-19%
COc1ccc(NC(=O)CN(C)C(=O)CCNS(=O)(=O)c2ccc(Br)cc2)cc1	1%
Cc1ccc(Cl)cc1NS(=O)(=O)Cc1ccccc1	-6%
COCCNC(=O)C(=O)NNS(=O)(=O)c1ccc2ccccc2c1	?
CCN1CCN(CC(=O)Nc2c(OC)cccc2OC)CC1	-15%
COc1cnc(-c2ccccn2)nc1Sc1ccc(Cl)cc1	15%
Cc1cc(C)nc(/N=C(/NC(=O)c2ccccc2)Nc2ccccc2)n1	-10%
O=C(COC(=O)c1cc([N+](=O)[O-])ccc1NCCO)c1ccccc1	-12%
COc1ccc(NC(=O)CSc2nc(-c3cccc(C)c3)[nH]c2-c2ccccc2)cc1OC	14%
COc1ccc(/C(N)=N/OC(=O)c2ccc(C)c([N+](=O)[O-])c2)cc1	-2%
COc1cc(OC)cc(C(=O)NCC(=O)Nc2ccc(C)c(Cl)c2)c1	7%
COc1cc(OC)c(C(=O)Nc2cccnc2)cc1OC	3%
COc1ccc(-c2c(C3C4C=CCC(C)C4C(=O)N3Cc3ccccc3)ccc3ccccc23)cc1 (centres undefined)	1%
COc1ccc(S(=O)(=O)N(CC(=O)N2CCN(c3ccccc3OC)CC2)c2ccccc2)cc1	3%
O=C(O)CCC(=O)N1N=C(c2ccccc2)CC1c1cccs1 (centres undefined)	-10%
Brc1cccc(-c2nc(-c3ccncc3)no2)c1	-5%
Further results follow.
SMILES	VDR inh
CC(=O)Nc1ccc(S(=O)(=O)NC(C(=O)O)C(C)O)cc1 (centres undefined)	2%
CN1CC(=O)N(CC(=O)Nc2ccc(N(C)C)cc2)c2ccccc2C1=O	5%
CC1CCN(C2(O)C(=O)Nc3ccc([N+](=O)[O-])cc32)CC1 (centres undefined)	9%
COc1ccc(C(=O)NCC(c2ccc(N(C)C)cc2)N2CCCC2)cc1 (centres undefined)	11%
COc1ccc(N(CC(=O)NCCSCc2ccco2)S(=O)(=O)c2ccc(C)cc2)cc1	9%
CC(C)C(=O)OC1CCS(=O)(=O)c2sccc21 (centres undefined)	-4%
CCOc1cc(C(=O)NC(=S)Nc2nc(C)cc(C)n2)cc(OCC)c1OCC	1%
O=C(N=C1SC2CS(=O)(=O)CC2N1c1ccc(F)c(Cl)c1)C1CC1 (centres undefined)	18%
CCOC(=O)C1CCCN(C(=O)c2cc3c(-c4cccc(OC)c4)nn(C)c3s2)C1 (centres undefined)	-9%
CCOC(=O)C1=C(N)Oc2ccc(Br)cc2C1C(C#N)C(=O)OCC (centres undefined)	5.6µM*
CC(C)C(C)NC(=O)CSc1ccc(S(=O)(=O)N2CCOCC2)cn1 (centres undefined)	6%
O=C(CCCCn1c(=O)c2ccccc2n(CC(=O)NC2CCCC2)c1=O)NCc1ccco1	13%
O=c1cc(CN2CCN(c3ccccc3F)CC2)c2cc(O)c(-c3ccccc3)cc2o1	-10%
O=C(Nc1cccc(OCc2cc(=O)n3ccccc3n2)c1)Nc1cccc(C(F)(F)F)c1	0%
O=C(CCCNC(=O)/C(=C\c1ccc(F)cc1)NC(=O)c1ccccc1)OCc1ccccc1	-5%
CC(Oc1ccccc1F)C(=O)NNC(=O)CC(C)c1ccccc1 (centres undefined)	5%
COc1ccccc1CNC(=O)C1CCN(S(=O)(=O)c2c(C)noc2/C=C/c2c(C)cc(C)cc2C)CC1	8%
Cc1cc(C)n(CCN(C)C(=O)CCc2nnc(-c3ccc4c(c3)OCO4)o2)n1	3%
CC(=O)NC(=S)Nc1ccc(NC(=O)COc2ccc(Cl)cc2)cc1	-8%
Cc1ccc(C(=O)Nc2ncccc2C)cc1S(=O)(=O)N1CCOCC1	-16%
